High-throughput results from PubChem.
RGS16-Gao: modulators of RGS16 binding to Galphao, primary screen, biochemical, human proteins, multiplexed bead flow cytometry; binding response (% of control), % at 10 µM; 220,000 tested, 0.38% active; bead-based flow cytometry RGS16-Galphao binding, fluorescence; actives lie on both sides;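 active means below 25% or above 175%, edge rows of some plates excepted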;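 further: Galphao activated by GDP with aluminum fluoride before binding; 100% = wells without compound and 0% = beads without RGS; some results beyond the cut were filed as inactive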
Target sequence (O15492 whole entry, looked up): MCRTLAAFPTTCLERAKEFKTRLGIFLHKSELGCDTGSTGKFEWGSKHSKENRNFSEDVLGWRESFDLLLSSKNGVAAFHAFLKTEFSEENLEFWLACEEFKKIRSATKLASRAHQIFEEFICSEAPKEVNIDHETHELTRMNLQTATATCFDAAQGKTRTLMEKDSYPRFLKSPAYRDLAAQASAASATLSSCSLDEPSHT
Target sequence (P09471 whole entry, looked up): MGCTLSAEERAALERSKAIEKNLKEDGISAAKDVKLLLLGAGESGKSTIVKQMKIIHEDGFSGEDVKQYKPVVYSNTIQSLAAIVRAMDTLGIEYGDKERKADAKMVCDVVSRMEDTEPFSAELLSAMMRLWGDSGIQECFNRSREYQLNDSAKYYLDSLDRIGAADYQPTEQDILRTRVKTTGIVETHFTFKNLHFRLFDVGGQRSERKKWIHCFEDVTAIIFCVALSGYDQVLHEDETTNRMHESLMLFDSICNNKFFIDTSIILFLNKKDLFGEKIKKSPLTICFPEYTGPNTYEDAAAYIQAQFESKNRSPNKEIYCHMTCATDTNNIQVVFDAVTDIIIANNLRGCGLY
PKD1 kinase inh: inhibitors of human PKD1 kinase, biochemical, fluorescence polarization; Serine/threonine-protein kinase D1 (Homo sapiens), Q15139; PKD1 kinase fluorescence polarization assay; inhibition, %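 (about 10 µM by stock and volumes)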; 200,000 tested, 0.056% active; AID 797, 2007;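 active means inhibition of 50% or more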;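 further: controls were vehicle for no effect and a reference inhibitor for full effect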
HSV replic up: enhancers of HSV replication in host cells, fold increase, host cell viability. HSV replication augmentation in cells. maximum fold increase. 220,000 tested, 0.005% active. AID 1956, 2009;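 active means peak rise of 1.5-fold or more in the series; inconclusive means self-fluorescent or not available for retest; tested in PC3 cells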;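 further: first round at 10 µM; read as green reporter fluorescence; hits show the peak of a series up to 25 µM; 1 = signal of infected wells without compound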
GALR2 agonist: GALR2 receptor agonists, primary screen, cell-based; activation, %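 (tested at 5 µM)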; 140,000 tested, 0.48% active; GALR2-expressing cells, agonist activation read-out; Galanin receptor type 2 (Homo sapiens), O43603; AID 803, 2007;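 active means above mean plus 3 SD of all compounds, about 5% in these data, not always enough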;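 further: 0% = vehicle buffer wells and 100% = reference agonist at full effect; tested in CHO reporter cells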
Target sequence (O43603 whole entry, looked up): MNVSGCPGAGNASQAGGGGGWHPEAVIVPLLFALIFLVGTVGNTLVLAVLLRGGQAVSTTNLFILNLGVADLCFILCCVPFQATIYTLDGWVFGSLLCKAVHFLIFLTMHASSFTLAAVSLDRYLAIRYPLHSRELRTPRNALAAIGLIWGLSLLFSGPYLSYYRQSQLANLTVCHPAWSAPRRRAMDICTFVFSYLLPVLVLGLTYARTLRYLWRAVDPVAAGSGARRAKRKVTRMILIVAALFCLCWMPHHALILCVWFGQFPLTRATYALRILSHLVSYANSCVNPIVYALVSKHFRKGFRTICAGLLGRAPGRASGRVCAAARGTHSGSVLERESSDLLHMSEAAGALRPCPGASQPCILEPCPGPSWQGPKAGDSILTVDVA
Insulin prom inh: inhibitors of insulin promoter-driven GFP, primary screen, imaging, TRM-6 cells (human fetal islet line), eGFP reporter, cell count | reporter expression induced with tamoxifen | inhibition, % at 2 µM | 130,000 tested, 0.9% active | AID 1273, 2008;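 active means inhibition above the mean plus 3 SD, with well images judged a real hit on visual review, cut at about 60% in these data, passing the limit was not always enough; inconclusive means inhibition over the cutoff but images rejected on review; inactive means inhibition not above the cutoff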
Insulin prom inh cell count: also measured in Insulin prom inh; calls as there; normalized cell count, %; measured here: cell count, toxicity; reference of the scale not given here;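 cells exposed to compound for 48 h; stained nuclei by imaging scaled within each plate; lower means fewer cells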
HSV replic up primary fold: recorded beside HSV replic up, whose call it bears; fold increase; compound at 10 µM; measured here: primary screen fold increase 10 uM; tested in PC3 cells;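 GFP signal in the first replicate; 1 = infected wells without compound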
* hit, by the source's call; i = inactive; ? = inconclusive; . = not tested or not shown.

Results follow in this order: RGS16-Gao	PKD1 kinase inh	HSV replic up	HSV replic up primary fold	GALR2 agonist	Insulin prom inh	Insulin prom inh cell count
> Cc1ccc(S(=O)(=O)CCC(=O)OCC(=O)c2ccc(C)c(C)c2)cc1
    108	0	i	1.1	-0.9	-13	81
> CC1CCCCN1Cc1ccc(-c2nn[nH]n2)cc1 (centres undefined)
    107	5	i	1	-1.4	27	96
> CSc1nsc(/C=C/Nc2ccc(C)c(C)c2)c1C#N
    85	-3	.	.	.	i	113
> CCOC(=O)c1[nH]cnc1C(=O)NC1CCCCC1
    103	-10	i	0.86	1.9	-17	93
> Cc1cn(S(=O)(=O)c2ccc(Br)c3ccccc23)cn1
    102	-11	i	0.9	-3.2	.	.
> CCOC(=O)/C(C#N)=C1/C(=O)N(Cc2ccccc2)c2ccccc21
    98	-6	i	0.99	.	.	.
> CCCn1c(NC(=O)c2ccc(F)cc2)nc2ccccc21
    100	-2	i	0.97	.	.	.
> COc1cc(/C=N/NC(=O)CN2CCCCC2)ccc1OCc1ccc(Br)cc1
    137	-7	i	0.91	1.0	10	88
> CC1=C(C(=O)Nc2cc(C)ccn2)C(c2cnn(C)c2)C2=C(CC(c3ccccc3)CC2=O)N1 (centres undefined)
    69	3	i	0.91	-0.9	36	47
> O=C(Cc1nc(=O)c2ccccc2s1)Nc1ccccc1
    52	-4	i	0.9	-2.1	.	.
> CCCOc1ccc(-c2nn(-c3ccccc3)cc2/C=C2\SC(N)=NC2=O)cc1
    106	0	i	0.97	-0.2	-17	103
> CCCCCC(=O)Nc1cccc(C2=NOC3(C2)C[C@@H](C(N)=O)N(C(=O)CC(c2ccccc2)c2ccccc2)C3)c1 (some centres undefined)
    90	.	i	0.78	.	.	.
> COc1cc(-n2cnnn2)ccc1S(=O)(=O)N1CCOCC1
    93	-6	i	1.1	-1.8	50	100
> CC(=O)N1CCC(=NNc2ccnc3cc(Cl)ccc23)CC1
    120	-11	i	1.2	.	66	26
> CSCC[C@H](NC(=O)c1ccc(Cl)c([N+](=O)[O-])c1)c1nc2ccccc2[nH]1
    99	-13	i	0.94	0.3	39	112

Next part:
Results follow in this order: RGS16-Gao	PKD1 kinase inh	HSV replic up	HSV replic up primary fold	GALR2 agonist	Insulin prom inh	Insulin prom inh cell count
> N#C/C(=C\c1ccc(C#N)cc1)C(=O)N1CCCC1
    108	-5	i	1	.	-9	240
> O=C(N/N=C/c1c(O)ccc2ccccc12)c1cccc(C(F)(F)F)c1
    53	-2	?	.	-1.0	23	37
> O=C1C2C3CCC(C3)C2C(=O)N1Cc1ccco1 (centres undefined)
    107	-2	i	1	-1.7	-12	75
> COCCCN=Cc1c(C)[nH]n(-c2ccc(Br)c(C)c2)c1=O
    109	-11	i	0.87	-0.7	-46	75
> O=C(CP(=O)(c1ccccc1)c1ccccc1)Nc1cccc(CP(=O)(c2ccccc2)c2ccccc2)c1
    100	.	i	0.95	.	.	.
> C#CCOCCOCCOCCNc1nc(N2CCN(C(=O)Cn3cc(CCCCN)nn3)CC2)nc(N2CCN(C(=O)Cn3cc(CC(C)O)nn3)CC2)n1 (centres undefined)
    96	-4	i	1.1	-1.4	41	132
> Cn1c(=O)c2c(nc(NNC(=O)C(F)(F)F)n2C)n(C)c1=O
    100	5	i	0.89	.	-18	136
> Cc1ccc(C)c(N(C)S(=O)(=O)c2ccc3[nH]cc(C(=O)NCCN4CCOCC4)c(=O)c3c2)c1
    112	-3	i	1	-0.4	21	109
> COc1ccc(CC(=O)Nc2ccc(-c3nnc(-c4ccccc4)o3)cc2)cc1OC
    104	-7	i	1.2	-2.2	-13	133
> O=S(=O)(Nc1ccc2c(c1)oc1ccccc12)N1CCCC1
    100	3	i	0.95	-2.0	54	85
> C/C(N)=C(/C#N)C(=O)COC(=O)c1cc(-c2ccc(C)cc2)nc2ccccc12
    101	-7	i	0.71	-1.5	-29	76
> N/C(=N\OC(=O)c1ccco1)c1ccc(Cl)cc1
    102	5	i	1.1	.	.	.
> CCn1c(C)nc2cc(C(=O)N/N=C(\C)c3ccc(N4CCOCC4)cc3)ccc21
    103	-2	i	1.1	.	.	.
> COc1ccc(OC2C(=O)N(Cc3ccc(F)cc3)C2c2ccc(OC)c(OC)c2)cc1 (centres undefined)
    104	2	i	0.93	-2.9	.	.
> CSC1=NC(C(Cl)(Cl)Cl)N=C(c2ccc(C)cc2)N1 (centres undefined)
    98	8	i	0.81	.	.	.

(cont.)
Results follow in this order: RGS16-Gao	PKD1 kinase inh	HSV replic up	HSV replic up primary fold	GALR2 agonist	Insulin prom inh	Insulin prom inh cell count
> CCOC(=O)N1CCC(N(CCN(C)C)C(=S)Nc2cc(Cl)ccc2C)CC1
    150	-6	i	0.91	.	-45	114
> COc1ccccc1NC(=O)CSc1nnc(Cn2cnc3ccccc32)o1
    101	-1	i	1	.	42	115
> O=C(Nc1ccc(Cl)cn1)c1ccc(-c2ccc(Cl)c(Cl)c2)o1
    .	3	i	1	-2.4	20	111
> O=C(Nc1nc2cc3c(cc2s1)OCO3)C1CC1
    115	.	i	1.1	.	.	.
> O=C(CC1SCCNC1=O)Nc1cc(Cl)cc(Cl)c1 (centres undefined)
    96	-6	i	0.99	-2.8	-36	122
> O=C(CSc1ccc(-c2cccnc2)nn1)N1CCCCCC1
    104	-5	i	0.91	.	-50	120
> O=S(=O)(Cc1ccccc1)N1CCCCC1
    99	-4	i	0.85	-2.6	.	.
> COc1ccc(CN2C(=O)c3ccccc3C(/C=N\OCc3ccc(F)cc3)C2=O)cc1 (centres undefined)
    101	-1	i	0.9	-2.8	-54	97
> COc1ccccc1-c1noc(CCC(=O)Nc2ccccc2Cl)n1
    101	-5	i	0.94	-2.5	20	128
> COC(=O)Cn1ncn2cccc2c1=O
    97	-2	i	0.88	-2.1	50	94
> Nc1ccccc1CNc1nc(NCCO)nc2c1ncn2CCN1CCOCC1
    107	.	i	0.83	.	.	.
> O=C(COc1ccc(Cl)cc1Cl)N/N=C/c1ccc(OC2OC(CO)C(O)C(O)C2O)cc1 (centres undefined)
    103	.	i	0.94	.	.	.
> Clc1ccc2nc(-c3ccccc3)c(CN3CCOCC3)n2c1
    96	-8	i	0.81	-0.7	.	.
> Clc1ccc(C(c2nnnn2C2CCCCC2)N(Cc2cccnc2)Cc2ccco2)cc1 (centres undefined)
    109	-5	i	1.1	-1.1	33	125
> CCOC(=O)NC(Nc1ccc(S(N)(=O)=O)cc1)(C(=O)OCC)C(F)(F)F (centres undefined)
    108	-3	i	0.92	-0.5	.	.

Later entries
Results follow in this order: RGS16-Gao	PKD1 kinase inh	HSV replic up	HSV replic up primary fold	GALR2 agonist	Insulin prom inh	Insulin prom inh cell count
> CCN(CC)C(=S)SCC(=O)Nc1nc(=O)c2ccccc2s1
    62	-2	i	1.1	-1.1	44	76
> N#CCc1cnc2ccccc2n1
    83	.	i	1.2	.	.	.
> O=[N+]([O-])c1cc(F)c(N2CCOCC2)cc1N1CCCCC1
    100	-8	i	1	-0.3	13	72
> O=C1CN2CCC1C/C2=C\c1ccnc2c(Cl)cccc12 (centres undefined)
    100	.	i	1.2	.	.	.
> CN(CCO)CCOCCOc1cccc2ccccc12
    94	4	i	0.87	.	.	.
> C(=C\c1ccco1)/c1nc2ccccc2[nH]1
    106	-3	?	.	.	.	.
> Cn1c(N/N=C2\CCCc3ccccc32)nc2c1c(=O)n(Cc1ccc(F)cc1)c(=O)n2C
    111	-11	i	0.87	0.1	.	.
> Nc1nc(NCCO)nc(NCC2CCCO2)c1[N+](=O)[O-] (centres undefined)
    103	24	i	1	0.2	-5	101
> NC(CSCc1cccc(Br)c1)C(=O)O (centres undefined)
    98	-3	i	1	.	27	124
> Clc1ccc(-c2nnc3n2CCCS3)cc1
    100	-3	i	1.1	0.4	24	112
> OC[C@H]1OC(Nc2ccc(N=Nc3ccccc3)cc2)[C@@H](O)[C@@H](O)[C@@H]1O (some centres undefined)
    94	.	i	0.93	.	.	.
> NC(=O)NC(c1ccccc1)c1cccc2ccccc12 (centres undefined)
    102	1	i	0.92	-0.7	-23	100
> COc1cc2c(cc1OC)C(C1(O)CCCCC1)NCC2 (centres undefined)
    99	.	i	1	.	.	.
> CC1CCc2c(sc3ncn(CC(=O)N=Nc4c(O)[nH]c5ccccc45)c(=O)c23)C1 (centres undefined)
    102	.	i	1.1	.	.	.
> CCn1c(SCC(=O)Nc2ccccc2)nnc1-c1cccs1
    94	.	i	0.99	.	.	.

New compounds follow
Results follow in this order: RGS16-Gao	PKD1 kinase inh	HSV replic up	HSV replic up primary fold	GALR2 agonist	Insulin prom inh	Insulin prom inh cell count
> COc1cc(NS(=O)(=O)c2ccc(N/C=C\C(=O)c3ccc(C)cc3)cc2)nc(OC)n1
    .	5	i	1	0.2	-2	112
> O=C(O)CCCC(=O)N1CCN(c2ncccn2)CC1
    101	.	i	1.1	.	.	.
> Cc1ccc(S(=O)(=O)Nc2ccc3c(c2)n(C)c(=O)n3C)c(C)c1
    98	0	i	1.1	.	.	.
> S=C(NCc1ccccc1)N1CCc2ccccc2C1
    102	3	i	0.85	.	.	.
> C=CCn1c(SCC(N)=O)nnc1-c1cc(Br)ccc1O
    104	6	i	0.96	-0.6	-129	151
> CCOCCCNC(=O)Cn1cnc2sc(C)c(S(=O)(=O)N3CCN(c4ncccn4)CC3)c2c1=O
    99	2	i	1.1	.	9	58
> COC(=O)NC1CSCC1OC(=O)CN1C(=O)c2ccccc2C1=O (centres undefined)
    102	-5	i	0.83	-1.1	35	123
> C/C(C/C(C)=C1/SC(=S)NC1=O)=C1\SC(=S)NC1=O
    168	0	i	1	.	-64	51
> O=C(O)c1ccc(CSc2ncn[nH]2)cc1
    114	-7	i	0.87	-2.3	0	105
> CC1(C)C2(C#N)C(N)=NC3(OCCO3)C12C#N (centres undefined)
    102	-12	i	0.93	0.4	11	85
> O=C(Cn1cnc2c(nnn2Cc2ccc(Cl)cc2)c1=O)OCc1ccccc1
    114	-4	i	0.89	-2.0	23	136
> CN(C)c1cc[nH]c(=O)c1C#N
    63	-1	i	1	-0.5	21	128
> CCOc1c(C(N)=O)c(-c2ccccc2)c2c(=O)[nH]c3ccccc3n12
    94	-3	i	0.86	0.1	14	86
> CC(C)OC(=O)c1cn(-c2ccccc2)nc1-c1ccco1
    90	-5	i	1	-1.0	27	99
> O=C(O)C1C2C=CC(O2)C1C(=O)Nc1ccc(S(=O)(=O)N2CCc3ccccc32)cc1 (centres undefined)
    105	3	i	1.1	-1.7	31	70
> COC(=O)Cn1c2c(c3cc(C)ccc31)CCCC2
    102	.	i	0.8	.	.	.
> CC(CN1CCN(C)CC1)OC(=O)c1cccc(Cl)c1 (centres undefined)
    87	.	i	0.93	.	.	.
